NPYLR7 agonist – activates Aedes aegypti NPYLR7 receptor; HEK293T NPYLR7/Galpha15, GCaMP6s calcium fluorescence; activation, % at 10 µM; hit rate 0.15% among 270,000; in the data active means activation above about 40%;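 further: 0% = vehicle and 100% = reference agonist at the receptor; some compounds past the cut are filed as inactive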
NPYLR7 agonist max-min – second read-out of NPYLR7 agonist, no call of its own (marks repeat the call); activation, %; measured here: Max-Min RFU normalised activation; some inactives read as strong as hits;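 span of the calcium signal over five minutes; 0% = vehicle and 100% = native peptide agonist; compound fluorescence can raise it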
Active calls of the source: *. A portion of the library. The share of hits here may be higher or lower than overall.

SMILES	NPYLR7 agonist	NPYLR7 agonist max-min
Cc1cc(N2CCOCC2)nc(SCc2cccc(C(=O)NCc3cccnc3)c2)n1	-7	-5
CCCN1C(c2cccnc2)=NS(=O)(=O)c2cc([N+](=O)[O-])ccc21	19	7
CCN(CC(=O)NC)C(=O)c1cc2c(s1)CCCCCC2	9	4
COc1cccc(NC(=O)N2CCN(c3nc(-c4ccc(C)cc4)nc(C)c3C)CC2)c1	-4	4
C/C=C(\C)CC(C)CC(C)C1OC(=O)CCC1OC(=O)/C=C/C(C)=C/C(CO)CCO (stereo unspecified)	-11	-17
Cn1ccc(C(=O)Nc2ccc(Oc3ncc(Cl)cc3Cl)cc2)cc1=O	2	2
CC(NC(=O)C1CC1C)c1ccc(N2CCOCC2)cc1 (stereo unspecified)	1	0
CC(C)NC(=O)CNC(=O)c1ccc(N2CCCC2=O)cc1	15	7
Oc1ccc(C=NNc2ncc(C(F)(F)F)cc2Cl)c(O)c1O	-8	-11
CCC(C)Nc1nc(C)nc2c1cnn2-c1ccccc1Cl (stereo unspecified)	6	5
O=C(COc1c(Cl)cccc1Cl)NCCc1ccc2c(c1)OCO2	0	4
C=C(C)COc1ccccc1-n1c(C)c(C)n2c3c(=O)n(C)c(=O)n(C)c3nc12	0	1

Next section:
SMILES	NPYLR7 agonist	NPYLR7 agonist max-min
Cc1ccc(NC(=O)c2cnn3c2[nH]c(=O)c2ccccc23)c2cccnc12	7	4
COCCn1c(=O)c2c(nc3n2CC(C)CN3c2cccc(C)c2)n(C)c1=O (stereo unspecified)	12	3
O=C(Nn1cnc2c(cnn2-c2ccccc2)c1=O)c1cccc2ccccc12	3	1
CC(C)c1cc(C(=O)N2CCN3CCN(C)C(=O)C3C2)nc2ncnn12 (stereo unspecified)	4	1
CC(=O)Nc1cnc(-c2ccc(O)cc2C)cn1	-2	-2
Cc1nc2[nH]n(C)c(=O)c2c(C)c1CCC(=O)NC1CCCCC1C (stereo unspecified)	5	1
Cc1ccc(CN(Cc2ccccc2)C(=O)CN(CC(C)C)C(=O)Nc2cccc(C)c2C)o1	4	4
Cc1ccc(F)c(S(=O)(=O)NC(=O)C2(C)CCN2C(=O)Cc2cccc3ccccc23)c1 (stereo unspecified)	2	-1
Cc1ccc(C)c(N2C(=O)/C(=C/c3ccc(Br)cc3)C=C2c2ccccc2)c1	1	5
c1ccc(-c2ccc3ncc(-c4ccoc4)n3n2)cc1	-7	-10
O=C(Nc1ccc2c(c1)N(C(=O)c1ccccc1)CCC2)NC1CCCCC1	-8	-7
Cc1cccnc1CC(C)NC(=O)c1cccc(-n2cccn2)c1 (stereo unspecified)	0	-1

(next part)
SMILES	NPYLR7 agonist	NPYLR7 agonist max-min
Cc1ccccc1C1(CNC(=O)NC2CC(=O)N(C)C2)CC1 (stereo unspecified)	6	6
COCC(=O)N(CC(=O)O)[C@@H]1C[C@@H]2CO[C@H](C(C)C)C[C@@H]2C1	18	14
COc1ccc(CCN(CC2CCN(C)CC2)C(=O)C=C(C)C)cc1	5	6
O=C(NCc1ccco1)[C@@]1(OCc2ccccc2F)CC(OCc2cccc(OC(F)(F)F)c2)[C@H](O)[C@H](O)C1 (stereo partly specified)	6	16
CCOCCn1c(=NC(=O)c2ccc(S(C)(=O)=O)cc2)sc2c(OC)ccc(OC)c21	3	0
CCCNC(=O)N(C)CC1CCCN(CCc2ccc(Cl)cc2)C1 (stereo unspecified)	10	5
Cc1ccc(C2c3cccn3CCN2C(=O)NC(C)(C)C)cc1 (stereo unspecified)	7	3
COc1cccc(-c2ccc(NC(=O)C3CCCN(C4CCOCC4)C3)cc2)c1 (stereo unspecified)	9	6
CCN(CC(=O)Nc1ccccc1C(F)(F)F)Cc1nnnn1C1CC1	7	3
CCCC(=O)OCC(O)CN(Cc1ccco1)Cc1cccn1C (stereo unspecified)	0	6
CCOc1ccc(C(C2Sc3nc(C)nn3C2=O)N2CCN(C)CC2)cc1 (stereo unspecified)	-1	-3
COc1cccc(C(=O)N(Cc2csc(COc3ccccc3C(C)C)n2)CC(C)C)c1	-1	5

Record cards, as listed above:
Record of C/C=C(\C)CC(C)CC(C)C1OC(=O)CCC1OC(=O)/C=C/C(C)=C/C(CO)CCO (stereo unspecified) = NPYLR7 agonist: -11; NPYLR7 agonist max-min: -17
Record of Cc1ccccc1C1(CNC(=O)NC2CC(=O)N(C)C2)CC1 (stereo unspecified) = NPYLR7 agonist: 6; NPYLR7 agonist max-min: 6

(continued)
SMILES	NPYLR7 agonist	NPYLR7 agonist max-min
Cc1cc(=O)c(C(=O)NCc2cccnc2)c2n1-c1ccccc1SC(c1ccc(F)c(F)c1)C2 (stereo unspecified)	-1	-5
CCOc1ccc(C(C2Sc3nc(CC)nn3C2=O)N2CCCCC2)cc1 (stereo unspecified)	-1	45
CN(C)CCNC(=O)c1cnc(N2CCN(CCc3ccccc3)C2=O)o1	2	1
COCCN1C(=O)/C(=C/c2ccc(O)c(OC)c2)SC1=S	50	38
CCc1nc2c(OCc3ccc(Cl)cc3Cl)cccn2c1N(C)C(=O)c1cccc(OC)c1	14	3
CN(CC(=O)Nc1sccc1C#N)Cc1ccccc1	5	4
CC(=O)NCc1ccc(-c2ccc(F)cc2Cl)nc1	4	1
Cc1cc(O)c(SC(F)(F)C(F)C(F)(F)F)c(=O)o1 (stereo unspecified)	5	4
COc1ccc(CNC(=O)c2cccnc2N2CCN(C(=O)c3ccc(N(C)C)cc3)CC2)cc1	27	17
COCCNC(=O)Cn1nc2c(c1NC(=O)c1ccc(-c3ccccc3)cc1)CSC2	-4	1
O=C(/C=C/c1ccccc1)N(CCN1CCOCC1)CC(=O)N(Cc1ccc(F)cc1)Cc1ccco1	-3	3
c1cnc2c(-c3nccn3CCc3cnc[nH]3)cccc2c1	-3	-12

In the list so far, these have fluorine.
SMILES	NPYLR7 agonist	NPYLR7 agonist max-min
Oc1ccc(C=NNc2ncc(C(F)(F)F)cc2Cl)c(O)c1O	-8	-11
Cc1ccc(F)c(S(=O)(=O)NC(=O)C2(C)CCN2C(=O)Cc2cccc3ccccc23)c1 (stereo unspecified)	2	-1
O=C(NCc1ccco1)[C@@]1(OCc2ccccc2F)CC(OCc2cccc(OC(F)(F)F)c2)[C@H](O)[C@H](O)C1 (stereo partly specified)	6	16
CCN(CC(=O)Nc1ccccc1C(F)(F)F)Cc1nnnn1C1CC1	7	3
Cc1cc(=O)c(C(=O)NCc2cccnc2)c2n1-c1ccccc1SC(c1ccc(F)c(F)c1)C2 (stereo unspecified)	-1	-5
CC(=O)NCc1ccc(-c2ccc(F)cc2Cl)nc1	4	1
Cc1cc(O)c(SC(F)(F)C(F)C(F)(F)F)c(=O)o1 (stereo unspecified)	5	4
O=C(/C=C/c1ccccc1)N(CCN1CCOCC1)CC(=O)N(Cc1ccc(F)cc1)Cc1ccco1	-3	3

Continued:
SMILES	NPYLR7 agonist	NPYLR7 agonist max-min
Cc1ccccc1CSc1nnc(-c2ccncc2)n1C	7	0
CCOCCn1c2c(=O)n(C)c(=O)n(C)c2n2c(-c3ccc(OC)cc3)nnc12	7	3
CC(C)CCN1C(=O)C2(CCN(C(=O)C3CCOC3)CC2)Nc2ccccc21 (stereo unspecified)	20	7
Cc1cc(C)n(-c2ccc(N3CCN(C(=O)c4ccc5ccccc5c4)CC3)nn2)n1	-5	-9
CC(C)c1cc(C(=O)NCCCc2nc3ccccc3n2C)n(C)n1	-5	-13
CSc1n[nH]c(-n2ccc3nc4ncnn4c(-c4ccccc4)c3c2=O)n1	-10	-19
CC(=O)Nc1ccc(S(=O)(=O)NC(=O)Cn2cc(COc3ccc4ccccc4c3)nn2)cc1	6	1
Cc1c(Cl)cccc1OCC(=O)NCCc1cccc(C(N)=O)c1	-4	-6
CC(=O)Oc1c(-c2ccc(NC(=O)c3ccc(Cl)cc3)cc2)c(-c2ccccc2F)nn1-c1ccc(F)cc1	15	13
CC(C)Oc1ccc(CN2CCC2(C)C(=O)Nc2cccc(NS(C)(=O)=O)c2)cc1 (stereo unspecified)	4	0
N#Cc1ccc2ncc(C=C3SC(N4CCCCC4)=NC3=O)n2c1	4	6
NCCc1csc2nc(-c3cccc(F)c3)nn12	1	-1

A draw from above in order of formula weight, ascending:
SMILES	NPYLR7 agonist	NPYLR7 agonist max-min
NCCc1csc2nc(-c3cccc(F)c3)nn12	1	-1
Cc1cc(C)n(-c2ccc(N3CCN(C(=O)c4ccc5ccccc5c4)CC3)nn2)n1	-5	-9
CC(=O)Nc1ccc(S(=O)(=O)NC(=O)Cn2cc(COc3ccc4ccccc4c3)nn2)cc1	6	1

(next part)
SMILES	NPYLR7 agonist	NPYLR7 agonist max-min
Cc1ccc(-c2csc3c(=O)[nH]cnc23)cc1	-3	-6
CCNC(=O)c1cccc(-c2ccc(OC)c(OC)c2OC)c1	1	0
CCCN1CCC(NC(=O)C2(c3cccc(C)c3)CC2)CC1	-2	-1
Cc1nnc(SCCCn2c(N3CCC(C)CC3)nc3c2c(=O)[nH]c(=O)n3C)s1	0	2
COCCCNC(=O)c1cc(NC(=O)Nc2ccc(OC)cc2OC)ccc1N1CCc2ccccc2C1	12	12
CC1Cc2cc(-c3cc(COC(=O)Cc4noc5ccccc45)no3)ccc2O1 (stereo unspecified)	0	-3
Cc1ccc(NC(=O)Cn2nc(C3CC3)c3cnn(-c4ccc(C)c(C)c4)c3c2=O)c(C)c1	9	6
CCCN(CC(=O)N(Cc1ccc(F)cc1)Cc1sccc1C)S(=O)(=O)c1c(C)cc(C)cc1C	-3	3
CCOC(=O)C(=O)Nc1ccc(-c2cccc(-c3cccc(OC)c3)n2)cc1	-6	-7
COC(=O)c1c2c(nc3c1c(-c1ccc(Cl)cc1)nn3C1CCS(=O)(=O)C1)CCC2 (stereo unspecified)	8	4
Cn1cnc2cc(C(=O)N3CCCC(Nc4ccc(F)c(F)c4)C3)cnc21 (stereo unspecified)	4	2
Cc1[nH]n(-c2nc(-c3cccc([N+](=O)[O-])c3)cs2)c(=O)c1N=Nc1cc(Cl)ccc1Cl	-8	-13

Other results follow:
SMILES	NPYLR7 agonist	NPYLR7 agonist max-min
CCCc1nnc(-c2cc3ccccc3n2Cc2ccccc2)o1	-9	-6
Cc1c(C(=O)O)cnn1-c1ccc(Br)cc1	5	2
Cc1ccc(C)c(N=c2scc(-c3ccccc3)n2N2CCOCC2)c1	-5	-9
OC1(c2ccc(OC(F)F)cc2)CN(c2ccccc2)C2=[N+]1CCCS2 (stereo unspecified)	1	6
COc1ccc(S(=O)(=O)Nc2ccc3c(c2)CN(C(=O)c2ccco2)CC3)cc1C	10	5
O=C(c1ccccc1)C1C(c2ccccc2)NC(=S)NC1(O)C(F)(F)F (stereo unspecified)	-2	0
Cn1c(Cc2cccs2)nnc1SCC(=O)c1ccc(Br)s1	-3	-6
CC(C)c1ccc(-c2nc(C(N)=O)c3[nH]c(=O)n(-c4ccc5c(c4)OCO5)c3n2)cc1	-2	-5
CCNc1ncc(C(=O)N2CCCC(OCc3cccnc3)C2)cn1 (stereo unspecified)	23	11
CNC(=O)C1CN(C(=O)COc2cccc(Br)c2)c2ccccc2O1 (stereo unspecified)	-5	-5
Cc1ccc(C(=O)NCc2ccnc(OC(C)CC(C)C)c2)c(=O)[nH]1 (stereo unspecified)	2	0
O=C(Nc1cccc(Oc2ccccc2)c1)c1ccc2nc(-c3ccccc3)c(-c3ccccc3)nc2c1	-10	-14

Other results.
SMILES	NPYLR7 agonist	NPYLR7 agonist max-min
CCN(CC)CCNc1nc2c(OC)ccc(OC)c2s1	3	1
CCc1nc2n(n1)C(=O)C(C(c1cccc(OC)c1)N1CC(C)OC(C)C1)S2 (stereo unspecified)	-6	-13
Cc1[nH]c(=S)[nH]c1Cc1ccccc1	5	3
c1cc(CN2CCOCC2)cc(C2NCCc3[nH]cnc32)c1 (stereo unspecified)	7	2
Cc1nn(CC(O)COc2ccc(Cl)cc2)c(=O)c2ccccc12 (stereo unspecified)	2	2
O=C1N[C@H](c2ccccc2)CO1	0	-1
Cc1c2n(nc(CCO)c1=O)CCS2	9	9
COc1ccc(C)cc1S(=O)(=O)N1CCC2(CCCO2)CC1	15	5
CCn1c(SCC(=O)N/N=C\c2ccccc2F)nc2ccccc21	0	4
Cc1nn(CCO)cc1CN1CCC1c1ccc(F)cc1 (stereo unspecified)	21	14
O=C(CSc1nc2ccccc2c(=O)n1C1CC1)NC1CCCCC1	4	0
COc1ccccc1-c1ccc2c(c1)C(C)(Cc1ccc(OC(F)(F)F)cc1)C(=O)N2 (stereo unspecified)	1	0

Other entries follow.
SMILES	NPYLR7 agonist	NPYLR7 agonist max-min
CCOC(=O)c1ccc(NC2=C(n3nnc4ccccc43)C(=O)c3ccccc3C2=O)cc1	2	-2
CCOC(=O)c1ccc(N2CCN(Cc3c(C)nn(C)c3Cl)CC2)nc1	-2	-3
Fc1ccc(C2CC(c3cccs3)=NN2c2ccccc2)cc1 (stereo unspecified)	-7	-12
O=C(NC(C(=O)N1CCCC1)C1CCN(C(=O)CCc2ccccc2)CC1)c1cccs1 (stereo unspecified)	6	14
CN(Cc1cn(C)nc1-c1ccc(Oc2ccccc2)cc1)CC1CCOCC1	0	-4
O=C(C1CC1)N(Cc1c(-c2ccccc2)noc1N1CCSCC1)C1CC1	7	-1
COc1ccc(N2CCN(C(=O)c3cc(-c4ccccc4F)nc4cc(C(C)(C)C)nn34)CC2)cc1	18	26

2 compounds picked at random from the list so far, as already listed:
SMILES	NPYLR7 agonist	NPYLR7 agonist max-min
CCOC(=O)c1ccc(N2CCN(Cc3c(C)nn(C)c3Cl)CC2)nc1	-2	-3
COc1ccc(N2CCN(C(=O)c3cc(-c4ccccc4F)nc4cc(C(C)(C)C)nn34)CC2)cc1	18	26

Screening results as filed in PubChem.
